NPYLR7 agonist: activates Aedes aegypti NPYLR7 receptor; activation, % at 10 µM; actives 0.15% (n = 270,000); HEK293T NPYLR7/Galpha15, GCaMP6s calcium fluorescence; AID 1259423; in the data active = activation above about 40%;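 note: 0% = vehicle and 100% = reference agonist at the receptor; some compounds past the cut are filed as inactive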
NPYLR7 agonist max-min: further read-out of NPYLR7 agonist, marked with its call; activation, %; measured here: Max-Min RFU normalised activation; some inactives read as strong as hits;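 span of the calcium signal over five minutes; 0% = vehicle and 100% = native peptide agonist; compound fluorescence can raise it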
An asterisk follows results filed as active; & = joins results of further samples. Not all compounds are listed; the hit share may differ from the screen's.

SMILES | NPYLR7 agonist | NPYLR7 agonist max-min
CS(=O)(=O)CCN(Cc1c(F)cccc1F)C1CCCC1 | 9.2 | 6.1
O=P1(N2CCOCC2)C=C(c2ccccc2)SC(c2ccccc2)=C1 | -20.4&2.8 | -25.9&-0.2
Cc1cc(Nc2ccncc2)n2nc(C)c(-c3ccccc3)c2n1 | -0.3 | -3.0
Nc1ccccc1C1SCC(=O)N1c1ccc2c(c1)OCCO2 (configuration not stated) | 13.9 | 16.1
CCc1noc(CC)c1CNC(=O)NCCS(C)=O (configuration not stated) | 0.5 | -2.5
CCc1cccc(NC(=O)CCCN2C(=O)NC3(CCCC3)C2=O)c1 | 14.7 | 6.6
CC(C)(NC(=O)Nc1ccc(C(F)(F)F)cc1)c1ccccc1 | 5.0 | -1.0
COc1cccc(C(C#N)NC(=O)c2nccc3ccccc23)c1OC (configuration not stated) | 0.3 | -1.6
COc1cc(C=C2N=C(c3ccc(OC(F)F)cc3)OC2=O)cc(Cl)c1OC | 0.7 | 14.6
O=C(Nc1cccc(Cl)c1)C(C1CCCC1)N1CCN(C(=O)c2cccc([N+](=O)[O-])c2)CC1 (configuration not stated) | -1.3 | 6.6
Cc1cccc(CNC(=O)c2sc(=O)n(Cc3cccc(F)c3)c2C)c1 | 13.2 | 4.8
CCOC(=O)C1=C(C)N=c2s/c(=C/c3cccc([N+](=O)[O-])c3)c(=O)n2C1c1ccc(OC(C)=O)cc1 (configuration not stated) | -2.7 | -6.6
O=C1c2ccccc2C2(c3ccccc3)OC12c1ccccc1 (configuration not stated) | -6.1 | -14.0
O=C(CN1CN(c2ccccc2)C2(CCN(S(=O)(=O)c3ccc(Cl)c([N+](=O)[O-])c3)CC2)C1=O)N1CCCC1 | -3.7 | -0.7
CC(=O)c1cc(CC(=O)NCc2ccc(C)s2)cs1 | -2.1 | -5.0
COc1ccccc1-n1c(=O)[nH]c2c(C(N)=O)nc(-c3ccc(C)o3)nc21 | 1.3 | -1.0
Cc1ccccc1-c1nc2scc(CCN)n2n1 | 2.4 | 2.3
CCn1ncc(C(=O)NCc2cncn2CC(C)C)c1C | -5.1 | -5.5
CC(C)C(=O)OCC(=O)c1c(N)n(C)c(=O)n(C)c1=O | 2.3 | 10.2
O=C(C1=CCCC1)N1CCC(C2(c3cccnc3)NC(=O)N(CCc3cccs3)C2=O)CC1 (configuration not stated) | 7.9 | 6.0
O=C(c1ccc2cccnc2n1)N1CC[C@@H](c2ccc3c(c2)OCO3)[C@H](O)C1 | 4.5 | 4.8
Cc1cc(Nc2nc3c(c(=O)n(C)c(=O)n3C)n2C)n(-c2ccc(Cl)cc2)n1 | -3.9 | -4.3
CN(C)c1nc(Oc2ccc(=O)n(C)n2)nc(N2CCCCC2)n1 | 1.8 | -0.4
COCCCN(Cc1ccccc1F)CC(O)Cc1ccccc1 (configuration not stated) | -21.6 | -15.1
O=C(O)C1CC(=O)N(c2ccc3c(c2)Cc2ccccc2-3)C1 (configuration not stated) | -9.1 | -10.4
CCOc1c(C)cnc2c1c(=O)n(Cc1ccccc1C)c(=O)n2C | -1.9 | -2.4
N#Cc1ccccc1CN1CCC(NC(=O)CC2CCCC2)CC1 | 8.9 | 3.4
Cc1ccc(-c2onc3c2CCCC3)cc1NC(=O)/C=C/c1cccc(C(F)(F)F)c1 | 0.3 | -3.6
CCOC(=O)C1(CCc2ccccc2)CCCN(C(=O)c2cnccn2)C1 (configuration not stated) | 8.0 | 5.6
O=C(c1ccc2ccccc2c1)C1CCCN(C(=O)CCN2CCCC2=O)C1 (configuration not stated) | 8.7 | 1.3
CN(C)c1ccc(/C=C2/SC(=S)N(Cc3ccco3)C2=O)cc1 | 8.9 | 11.2
CC(C)c1ccc(-c2csc(NC(=O)/C=C/c3cnn(C)c3)n2)cc1 | 3.6 | 1.5
Cc1noc(CNc2ccc(CC(=O)N3CCSCC3)cc2)n1 | -2.6 | -3.6
CCn1c(CC2CCN(Cc3ccc4onc(C)c4c3)CC2)nn(C)c1=O | 6.6 | 3.5
COc1ccc(C2(NCCCCC#N)CCCC2)cc1 | 0.4 | -3.7
CC(NC(=O)Cc1n[nH]c(=O)c2ccccc12)c1ccc2c(c1)CCCC2 (configuration not stated) | 18.4 | 12.0
Cc1nc2ccccn2c1CN(C)C(=O)CC1C(=O)NCCN1CC(C)(C)C (configuration not stated) | 6.2 | 3.4
COc1cc(/C=C(/C(=O)N2CCCC2)c2nc3sc(C)c(C)c3c(=O)[nH]2)cc2c1OCO2 | 4.2 | 2.1
CN(CC(=O)NCCCC1CCCC1)S(=O)(=O)c1ccc(Cl)cc1 | 0.4 | -1.6
O=C1c2ccccc2C(=O)C1c1ccnc2ccccc12 | 102.6* | 105.4*

Retrieved by structure from the entries so far, 4 records:
SMILES | NPYLR7 agonist | NPYLR7 agonist max-min
O=C1c2ccccc2C(=O)C1c1ccnc2ccccc12 | 102.6* | 105.4*
CCOc1c(C)cnc2c1c(=O)n(Cc1ccccc1C)c(=O)n2C | -1.9 | -2.4
Cc1nc2ccccn2c1CN(C)C(=O)CC1C(=O)NCCN1CC(C)(C)C (configuration not stated) | 6.2 | 3.4
CCn1c(CC2CCN(Cc3ccc4onc(C)c4c3)CC2)nn(C)c1=O | 6.6 | 3.5

Following part
SMILES | NPYLR7 agonist | NPYLR7 agonist max-min
Oc1[nH]c2ccccc2c1N=Nc1ccc2c(Cl)cc(Cl)c(O)c2n1 | 1.6 | -4.9
COc1ccc(S(=O)(=O)NCCCN2CCOCC2)cc1N1CCN(C(=O)c2ccc(F)cc2C(F)(F)F)CC1 | 11.2 | 8.7
Cc1cc(S(=O)(=O)N2CCCC(CNS(=O)(=O)Cc3ccccc3)C2)c(C)s1 (configuration not stated) | -1.4 | -4.0
CC(C)C(NC(=O)c1ccccc1Cl)C(=O)N1CCc2cnccc21 (configuration not stated) | 4.0 | 1.9
OCc1c[nH]c(=S)n1Cc1ccc(F)cc1 | -2.5 | -4.6
FC(F)(F)Cn1nnnc1SCCN1CCCCC1 | 11.8 | 11.4
COc1cccc2cc(C(N)=O)c(=Nc3ccccc3C)oc12 | -9.6 | -11.9
Cc1ccc2cc(C(=O)NC3CCN(C(C)C)CC3)[nH]c2c1 | -10.0 | -8.8
COc1ccccc1Oc1nc(N2CCOCC2)nc2c1CN(Cc1ccc([N+](=O)[O-])cc1)CC2 | 11.2 | 9.5
CC(C)c1ccc(CNc2nc(N)n(-c3ccccc3)n2)cc1 | -1.5 | 28.9
Cc1nc(N2CCOCC2)sc1C(=O)NNS(=O)(=O)c1cc(F)cc(F)c1 | 1.7 | 3.2
CCOC(=O)C1(Cc2cccc(OC)c2)CCN(Cc2cc(C(C)C)n[nH]2)CC1 | 0.8 | -4.9
CN(C)C(=O)CCCn1cnc(-c2ccccc2)c1-c1cc2ccccc2[nH]1 | -8.9 | -17.9
O=S(=O)(Cc1cn2ccccc2n1)Cc1ccccc1C(F)(F)F | 0.9 | 0.4
CC(C)N1CCOC(CC(=O)N2CCCN(C)C3(CCN(C)CC3)C2)C1 (configuration not stated) | 7.3 | 4.0
O=C(Cc1cccs1)N1CCN(c2cccc(Cl)c2)CC1 | -1.6 | -3.1
Cc1ccc(S(=O)(=O)NCCNS(C)(=O)=O)c(Br)c1 | -2.5 | -1.3
CCc1csc(CNC(=O)[C@@]23CNC[C@@H]2CN(S(C)(=O)=O)C3)n1 | 16.3 | 11.4
O=C1CCC2(CCN1)CCN(C(=O)CCn1cnc3ccccc31)CC2 | 8.8 | 4.6
CC1CCC(NC(=O)C2CC=CCC2C(=O)O)CC1 (configuration not stated) | 5.4 | 7.4
CC(C)Nc1ccnc(N2Cc3cnc(C(C)(C)C)nc3C2)n1 | -8.5 | -8.6
COC(=O)c1ccc(C(=O)OC)c(NC(=O)c2cc3cccc(OC)c3oc2=O)c1 | -3.3 | -10.3
O=C(CSc1nncn1-c1ccccc1F)NCC1CCCCC1 | -6.9 | 23.4
CCC(C)N(Cc1c(-c2ccccc2F)noc1N1CCOCC1)C(=O)C1CCCC1 (configuration not stated) | 14.0 | 16.8
CCOc1ccc(-c2ncncc2Oc2ccc(OC)cc2)c(O)c1 | -2.5 | -6.3
CCOc1ccc(-c2ccnc(N3CCN(S(=O)(=O)c4c(F)c(F)c(F)c(F)c4F)CC3)n2)cc1 | -0.9 | 5.1
Cn1nc(C2CCN(C(=O)C3CCOCC3)CC2)n(Cc2ccccc2)c1=O | 0.6 | 0.3
CCOC(=O)c1nn(-c2ccc(C)cc2)c(=O)cc1OS(=O)(=O)c1cc(C)c(Cl)cc1C | -2.3 | 1.9
COc1ccc2nc(N=Cc3nc(-c4ccccc4)oc3O)sc2c1 | -2.3 | -6.7
Cc1ccccc1Oc1cc(N2CCN(C(=O)COc3ccccc3)C(C)C2)ncn1 (configuration not stated) | -9.1 | -4.6
CCn1cc(C(CC(=O)N2CCN(Cc3ccccc3)CC2)c2cc(OC)cc(OC)c2)c2ccccc21 (configuration not stated) | -3.7 | 2.6
CCCCOC(=O)C1=C(C)N(C)C(=O)NC1c1cccc([N+](=O)[O-])c1 (configuration not stated) | -0.6 | -4.6
CN(C)C(=O)CCC(=O)N1CCCC2(CCCc3ccccc32)C1 (configuration not stated) | -0.2 | 23.2
CCOc1ccc(-c2cc3c(=O)n(CC(=O)Nc4ccc(C)cc4Cl)ccn3n2)cc1 | 4.3 | 1.6
O=C1NCC2(CCCN(Cc3ccc(C(F)(F)F)nc3)CC2)O1 (configuration not stated) | 13.6 | 5.9
COc1ccc(OCC(=O)NNC(=O)COc2cc(C)c(Cl)c(C)c2)cc1 | -1.5 | -2.4
CC1CC(NC(=O)C(=O)c2c[nH]c3ccccc23)CC(C)(C)C1 (configuration not stated) | 3.1 | 2.5
COc1ncccc1C(=O)N1CCC(C(Cc2ccccc2F)N(C)C(=O)c2cccs2)CC1 (configuration not stated) | -0.5 | -3.5
Cc1cc(C)cc(N2CCn3c2nc2c3c(=O)n(Cc3ccc(Br)cc3)c(=O)n2C)c1 | 3.9 | 11.3
Cc1nc(C)c(CN2CCCC(C(=O)Nc3ccc(-c4cscn4)cc3)C2)nc1C (configuration not stated) | 5.6&-3.8 | 2.9&-3.4
NC(=O)c1ccc(NC(=O)CN2CCC(Cn3cnc4ccccc43)CC2)cc1 | -0.8 | -2.9
CCC1CCCCN1C(=O)CN(C)CC1CCN(CC(C)O)CC1 (configuration not stated) | 8.0 | 4.3
COc1ccc(CCNC(=O)c2cccnc2N2CCN(S(=O)(=O)c3cc(F)cc(F)c3)CC2)cc1OC | 20.1 | 14.6
COc1ccc(N(C)S(=O)(=O)c2ccsc2C(=O)n2nc(C)cc2C)cc1 | -1.0 | -6.4
CCC(NC(=O)Cc1nonc1C)c1ccccn1 (configuration not stated) | 9.6 | 7.4
COc1ccccc1-c1cc(C(=O)NC(C)c2ccccc2)nc2cc(-c3ccccc3)nn12 (configuration not stated) | 3.1 | 2.4
COc1ccc(Nc2nc(NCCCN(C)C)nc(N)c2[N+](=O)[O-])cc1 | -1.9 | -2.6

At a glance, some entries already given:
SMILES | NPYLR7 agonist | NPYLR7 agonist max-min
COC(=O)c1ccc(C(=O)OC)c(NC(=O)c2cc3cccc(OC)c3oc2=O)c1 | -3.3 | -10.3
O=C(CSc1nncn1-c1ccccc1F)NCC1CCCCC1 | -6.9 | 23.4
CCC(C)N(Cc1c(-c2ccccc2F)noc1N1CCOCC1)C(=O)C1CCCC1 (configuration not stated) | 14.0 | 16.8
CCOc1ccc(-c2ncncc2Oc2ccc(OC)cc2)c(O)c1 | -2.5 | -6.3
CCOc1ccc(-c2ccnc(N3CCN(S(=O)(=O)c4c(F)c(F)c(F)c(F)c4F)CC3)n2)cc1 | -0.9 | 5.1
Cn1nc(C2CCN(C(=O)C3CCOCC3)CC2)n(Cc2ccccc2)c1=O | 0.6 | 0.3
CCOC(=O)c1nn(-c2ccc(C)cc2)c(=O)cc1OS(=O)(=O)c1cc(C)c(Cl)cc1C | -2.3 | 1.9
COc1ccc2nc(N=Cc3nc(-c4ccccc4)oc3O)sc2c1 | -2.3 | -6.7
Cc1ccccc1Oc1cc(N2CCN(C(=O)COc3ccccc3)C(C)C2)ncn1 (configuration not stated) | -9.1 | -4.6
CCn1cc(C(CC(=O)N2CCN(Cc3ccccc3)CC2)c2cc(OC)cc(OC)c2)c2ccccc21 (configuration not stated) | -3.7 | 2.6
CCCCOC(=O)C1=C(C)N(C)C(=O)NC1c1cccc([N+](=O)[O-])c1 (configuration not stated) | -0.6 | -4.6
CN(C)C(=O)CCC(=O)N1CCCC2(CCCc3ccccc32)C1 (configuration not stated) | -0.2 | 23.2
CCOc1ccc(-c2cc3c(=O)n(CC(=O)Nc4ccc(C)cc4Cl)ccn3n2)cc1 | 4.3 | 1.6
O=C1NCC2(CCCN(Cc3ccc(C(F)(F)F)nc3)CC2)O1 (configuration not stated) | 13.6 | 5.9
COc1ccc(OCC(=O)NNC(=O)COc2cc(C)c(Cl)c(C)c2)cc1 | -1.5 | -2.4
CC1CC(NC(=O)C(=O)c2c[nH]c3ccccc23)CC(C)(C)C1 (configuration not stated) | 3.1 | 2.5
COc1ncccc1C(=O)N1CCC(C(Cc2ccccc2F)N(C)C(=O)c2cccs2)CC1 (configuration not stated) | -0.5 | -3.5
Cc1cc(C)cc(N2CCn3c2nc2c3c(=O)n(Cc3ccc(Br)cc3)c(=O)n2C)c1 | 3.9 | 11.3
Cc1nc(C)c(CN2CCCC(C(=O)Nc3ccc(-c4cscn4)cc3)C2)nc1C (configuration not stated) | 5.6&-3.8 | 2.9&-3.4
NC(=O)c1ccc(NC(=O)CN2CCC(Cn3cnc4ccccc43)CC2)cc1 | -0.8 | -2.9
CCC1CCCCN1C(=O)CN(C)CC1CCN(CC(C)O)CC1 (configuration not stated) | 8.0 | 4.3
COc1ccc(CCNC(=O)c2cccnc2N2CCN(S(=O)(=O)c3cc(F)cc(F)c3)CC2)cc1OC | 20.1 | 14.6
COc1ccc(N(C)S(=O)(=O)c2ccsc2C(=O)n2nc(C)cc2C)cc1 | -1.0 | -6.4
CCC(NC(=O)Cc1nonc1C)c1ccccn1 (configuration not stated) | 9.6 | 7.4
COc1ccccc1-c1cc(C(=O)NC(C)c2ccccc2)nc2cc(-c3ccccc3)nn12 (configuration not stated) | 3.1 | 2.4
COc1ccc(Nc2nc(NCCCN(C)C)nc(N)c2[N+](=O)[O-])cc1 | -1.9 | -2.6

Assay outcomes from PubChem.
